# H5N1 antiviral – MDCK cell protection from H5N1 avian flu | cytopathic effect, luminescence, 72 h; hits give high values; no value below 0 was filed and about half of the inactive calls have no number; reference of the scale not given here | inhibition, % at 50 µM | hit rate 0.07% among 96,000; in the data active = inhibition above about 25%
# Numbers without * were called inactive; i = inactive. The list is partial; count on the stated rates, not on these rows.
SMILES,H5N1 antiviral
Cc1onc(-c2ccccc2Cl)c1C(=O)OCC(=O)c1ccccc1,0.6
O=C(CSc1nnc(CNC(=O)c2cccs2)o1)c1ccc(Cl)cc1,1.2
COC(=O)c1ccc(Cl)c(NC(=O)CN2CCOCC2)c1,0.3
Cc1ccc(S(=O)(=O)N2CCC(C(=O)NCc3ccccc3Cl)CC2)cc1,0.1
Cn1c(SCC(=O)NCc2ccc3c(c2)OCO3)nnc1-c1cccs1,i
CCOC(=O)c1[nH]c2cc3c(cc2c1NC(=O)CN1CCCCC1C)OCO3 (stereo not drawn),i
CCOc1ccc(NC(=O)CSc2nc3cccnc3n2CCOC)cc1,0.8
COC(=O)[C@H](CCSC)NC(=O)Nc1ccc(C(C)C)cc1,i
Cc1cc(C=O)c(C)n1C1CCCCC1,i
CC(C)CCNC(=O)c1nnc(Cc2ccc(Cl)cc2)o1,2.4
Cc1cc(OCC(=O)Nc2ccccc2F)nc(C(C)C)n1,0.3
CC(=Nc1ccc(O)cc1)c1sc2ccccc2c1O,0.7
c1ccc2c(c1)OCC(CNc1ncnc3nc[nH]c13)O2 (stereo not drawn),3.7
COc1ccccc1-c1nnc2n1N=C(C(C)(C)C)CS2,2.3
O=C(O)C1CC(c2ccccc2F)=NO1 (stereo not drawn),i
O=C(Nc1ccc2c(c1)CCC2)c1ccc(Br)o1,i
CCn1c(SCc2nc3ccccc3s2)nnc1-c1cccs1,1.4
CN1C(=O)CC(N2CCC(c3nc4ccccc4s3)CC2)C1=O (stereo not drawn),0.3
COc1ccccc1N1CCN(C(=O)c2nn(-c3ccccc3OC)c(=O)c3ccccc23)CC1,i
C=CCn1c(Sc2nnc(C)s2)nc2c1c(=O)[nH]c(=O)n2C,1.4
Cn1c(=O)oc2cc(S(=O)(=O)N3CCOCC3)ccc21,0.5
Cc1nnc2n1N=CC=C(c1ccccc1)S2,17
O=C(CC1SC(=Nc2ccccc2)N(CCCCO)C1=O)NCc1ccccc1 (stereo not drawn),i
O=C(NNC(=O)c1sc2ccccc2c1Cl)Nc1ccc(Cl)cc1,i
Oc1ccc(CNc2ccccc2O)cc1,0.4
COC(=O)CN1C(=O)S/C(=C/c2ccc(N3CCCCC3)o2)C1=O,i
CN(C)c1ccc(C(=O)Nc2nc3c(s2)CCCC3)cc1,i
Cc1ccc(-n2c(C)csc2=N)cc1,i
CCOc1cc(/C=N\NC(=O)c2ccc(NC(=O)CC)cc2)ccc1OC(=O)c1ccccc1,i
CCCCCOC(=O)CSc1nc2c(c(=O)[nH]c(=O)n2C)n1Cc1ccc(Cl)cc1,4.3
Cc1ccc(S(=O)(=O)N2CCC(C(=O)Nc3nnc(COc4ccccc4)s3)CC2)cc1,0.2
CC(C)(C)c1ccc(S(=O)(=O)NCc2ccc(C(=O)N3CCCC3)cc2)cc1,i
CCOC(=O)CSc1nnc(-c2c[nH]c3ccccc23)n1CC,0.7
COc1ccc(NC(=O)CSc2nnc(-c3ccncc3)n2CC2CCCO2)c(OC)c1 (stereo not drawn),i
COc1ccc(OC)c(NC(=O)c2ccc(CN3CCOCC3)cc2)c1,0.1
Cn1ccnc1Sc1nc(Nc2cccc(Cl)c2)nc(N2CCOCC2)n1,1.8
CCCCC12CNCC(C)(CNC1)C2=O,1.1
COc1cc(OC)c(NC(=S)Nc2cccc(C(C)=O)c2)cc1Cl,i
COc1ccc(OCCCC(=O)Nc2cc([N+](=O)[O-])ccc2C)cc1,0.9
COc1ccc(OC)c(/C=N\NC(=O)CSc2nnc(CCCc3ccc(OC)c(C)c3)o2)c1,4.7
Cc1cc(C)n2nc(C(=O)OCC(=O)Nc3ccc4c(c3)OCO4)nc2n1,1.6
c1ccc2c3nnc4n(c-3nc2c1)CCCS4,1.2
O=C(Nc1nccs1)C1CCCN1S(=O)(=O)c1ccc(F)cc1 (stereo not drawn),0.2
COc1cccc2c(=O)n(CC(=O)Nc3ccccc3F)ccc12,4.7
O=C(CCC(=O)c1cccs1)OCC(=O)c1ccc(Cl)s1,0.3

# Next section (7 carried over from the part before).
SMILES,H5N1 antiviral
COc1ccc(OCCCC(=O)Nc2cc([N+](=O)[O-])ccc2C)cc1,0.9
COc1ccc(OC)c(/C=N\NC(=O)CSc2nnc(CCCc3ccc(OC)c(C)c3)o2)c1,4.7
Cc1cc(C)n2nc(C(=O)OCC(=O)Nc3ccc4c(c3)OCO4)nc2n1,1.6
c1ccc2c3nnc4n(c-3nc2c1)CCCS4,1.2
O=C(Nc1nccs1)C1CCCN1S(=O)(=O)c1ccc(F)cc1 (stereo not drawn),0.2
COc1cccc2c(=O)n(CC(=O)Nc3ccccc3F)ccc12,4.7
O=C(CCC(=O)c1cccs1)OCC(=O)c1ccc(Cl)s1,0.3
O=C(NC1CCCc2ccccc21)C1CCN(S(=O)(=O)c2cnc[nH]2)CC1 (stereo not drawn),i
COc1cc2c(cc1OC)C1(Nc3c-2c(C)nn3-c2ccccc2)C(=O)Nc2ccccc21 (stereo not drawn),i
O=C(O)CCSCC(=O)Nc1c(C(=O)C2CC2)oc2ccccc12,i
COc1ccc(C(=O)Nc2sc3c(c2C(=O)NCc2ccco2)CCCC3)cc1OC,i
FC(F)(F)c1cccc(CN2CCCCCC2)c1,0.7
Cc1ccnc(SCC(=O)N2CCC(C(N)=O)CC2)n1,i
Fc1ccccc1N1CCN(C(c2ccncc2)c2nnnn2C2CCCC2)CC1 (stereo not drawn),1.2
Cc1ccc(S(=O)(=O)N2CCN(Cc3cc(C(C)C)ccc3O)CC2)cc1,2.1
CCCCn1c(SC(C)C(=O)c2ccc(OC)cc2)nc2cc(S(N)(=O)=O)ccc21 (stereo not drawn),i
FC(F)(F)c1ccc(/C=N/N2CCN(Cc3cccc4ccccc34)CC2)cc1,0.1
O=C(COc1ccc(S(=O)(=O)NC2CCCCC2)cc1Cl)NCc1cccnc1,3.2
Cc1cc2oc(C(=O)N(Cc3ccccc3)C3CCS(=O)(=O)C3)cc(=O)c2cc1Cl (stereo not drawn),1.4
CCc1ccc(C(=O)CSc2nnc(C)c(=O)[nH]2)cc1,i
Cc1ccccc1-n1ncc2c(SCC(=O)NCc3cccs3)ncnc21,0.1
O=C(NC1CC2CCCC(C1)N2S(=O)(=O)c1ccccc1)C1CCCCC1 (stereo not drawn),i
COc1ccc(C(=O)N/C(=C\c2cccc3ccccc23)C(=O)NCCc2c[nH]c3ccccc23)cc1OC,i
Cc1ccc(C(=O)Nc2nnc(-c3cccs3)s2)cc1C,i
O=C(c1ccco1)c1cn(CC(=O)N2CCCc3ccccc32)c2ccccc12,1.9
C1=C(C(c2nnnn2C2CCCCC2)N2CCCCC2)COc2ccccc21 (stereo not drawn),i
CC(=N\Nc1ccc(Cl)cc1)/C(=N/O)C(=O)Nc1ccccc1,i
CCCOC(=O)Nc1nnc(CCC)s1,0.9
Cc1nc(N2CCN(c3ccccc3)CC2)[nH]c(=O)c1Cc1cccc2ccccc12,i
CCN(CC)C(=O)CSc1nnc(-c2cccs2)n1Cc1ccco1,i
O=C(CSc1nnc(CNC(=O)c2ccco2)o1)NC1CCCC1,i
COC(=O)CC(=O)CSc1nc2c(cc1C#N)CCCCC2,0.3
CC(=O)OCCCN1c2ccccc2Nc2nnc(-c3ccccc3)cc21,i
CN(C)C(=O)On1c(-c2ccccc2)nc2ccc(Cl)cc21,1.3
Cc1ccc2[nH]c(=O)c(C(c3nnnn3CCc3ccccc3)N3CCOCC3)cc2c1 (stereo not drawn),1.4
O=S(=O)(Cc1ccccc1)N1CCc2ccccc2C1,0.9
COC(=O)c1c(C(=O)OC)c2ccncn2c1Cl,i
COc1cccc(/C=N/n2c(=S)n(C)c3ccccc32)c1OC,0.3
O=C1N(S(=O)(=O)c2ccccc2F)C(=O)C2(CCCC2)N1S(=O)(=O)c1ccccc1F,0.3
Cn1c(Cn2nnc3ccccc32)nnc1SCC(=O)N1c2ccccc2CCc2ccccc21,3.7
Cc1cccc(NC(=O)C2CCCN2S(=O)(=O)c2cccc3cccnc23)c1 (stereo not drawn),6.2
Cn1c(NC(=O)c2ccc(C(C)(C)C)cc2)cc(=O)n(C)c1=O,i
O=S(=O)(/N=C(/Nc1ccccn1)c1ccccc1)c1ccccc1,i
CCOC(=O)c1c(NC(=O)OC)sc(C(=O)N(C)C)c1C,2.0
COC(=O)c1[nH]c2ccc(C)cc2c1NC(=O)Nc1ccccc1OC,0.0
COc1ccc(C2C=C(c3ccccc3)Nc3nc(NC(C)=O)nn32)cc1 (stereo not drawn),i
Cc1ccccc1CS(=O)(=O)CCC(=O)NCCCN1CCN(c2ccccc2F)CC1,i
O=C(O)C1CC(=O)n2c(nc3ccccc32)S1 (stereo not drawn),0.1
Cc1ccc(C(=O)C2(C)N(O)C(C)C(c3cccs3)=[N+]2[O-])cc1 (stereo not drawn),i
O=C(CCCn1c(=O)c2ccccc2n(CC(=O)NCc2ccco2)c1=O)NCc1ccco1,0.7
Oc1c(C(c2cccs2)N2CCN(c3ccccc3)CC2)ccc2cccnc12 (stereo not drawn),1.2
CC(=O)N1CCN(S(=O)(=O)c2ccc(C)cc2)C1c1ccc(N(C)C)cc1 (stereo not drawn),0.1

# Arranged by number of heavy atoms (low to high): 6 of the compounds above.
SMILES,H5N1 antiviral
O=C(O)C1CC(=O)n2c(nc3ccccc32)S1 (stereo not drawn),0.1
COc1cccc(/C=N/n2c(=S)n(C)c3ccccc32)c1OC,0.3
O=S(=O)(/N=C(/Nc1ccccn1)c1ccccc1)c1ccccc1,i
CC(=O)N1CCN(S(=O)(=O)c2ccc(C)cc2)C1c1ccc(N(C)C)cc1 (stereo not drawn),0.1
O=C1N(S(=O)(=O)c2ccccc2F)C(=O)C2(CCCC2)N1S(=O)(=O)c1ccccc1F,0.3
Cc1ccccc1CS(=O)(=O)CCC(=O)NCCCN1CCN(c2ccccc2F)CC1,i

# (more compounds)
SMILES,H5N1 antiviral
Cn1c(N2CCN(C(=O)Nc3ccc(C(F)(F)F)cc3)CC2)nc2ccccc21,i
COc1ccccc1NC(=O)N(Cc1ccc2c(c1)OCO2)Cc1nc2ccccc2c(=O)[nH]1,1.4
CC(C)c1ccc(N2CC(C(=O)Nc3nccs3)CC2=O)cc1 (stereo not drawn),i
O=C(NCC1CCCO1)C(C(=O)c1ccccc1)n1cc(Cl)ccc1=O (stereo not drawn),i
CCn1c(SCC(=O)Nc2ccc(C(=O)OC)cc2)nnc1-c1cccs1,0.7
CCOc1cc(C)c(C(C)C)cc1S(=O)(=O)NCc1ccccn1,i
CCOC(=O)Nc1ccc(OC)cc1S(=O)(=O)N1CCCCC1,0.0
O=C(CSc1nc2ccccc2[nH]1)c1cccs1,i
O=C(CN1CCCCCC1)Nc1ccc(F)c(F)c1F,1.2
CC(C)C(=O)Nc1ccc(C(=O)NNC(=O)NC2CCCCC2)cc1,i
Cc1ccccc1NC1(C#N)C(=O)Nc2ccccc21 (stereo not drawn),i
Cc1ccc(CCN2CC(C(=O)NCCCN3CCN(C)CC3)CC2=O)cc1 (stereo not drawn),1.0
O=C(c1ccco1)N(CCC(c1ccccc1)c1ccco1)Cc1ccc(F)cc1 (stereo not drawn),1.4
CC(=O)c1cccc(NC(=O)COc2nsnc2N2CCOCC2)c1,1.2
Cc1nc2nc(CSc3nc4ccccc4s3)cc(=O)n2[nH]1,0.3

# Quoted from the entries so far, 6 compounds:
SMILES,H5N1 antiviral
Cn1c(N2CCN(C(=O)Nc3ccc(C(F)(F)F)cc3)CC2)nc2ccccc21,i
COc1ccccc1NC(=O)N(Cc1ccc2c(c1)OCO2)Cc1nc2ccccc2c(=O)[nH]1,1.4
CC(C)c1ccc(N2CC(C(=O)Nc3nccs3)CC2=O)cc1 (stereo not drawn),i
O=C(NCC1CCCO1)C(C(=O)c1ccccc1)n1cc(Cl)ccc1=O (stereo not drawn),i
CCn1c(SCC(=O)Nc2ccc(C(=O)OC)cc2)nnc1-c1cccs1,0.7
CCOc1cc(C)c(C(C)C)cc1S(=O)(=O)NCc1ccccn1,i

# Later entries:
SMILES,H5N1 antiviral
CNCCCOc1ccc(C(C)(C)c2ccccc2)cc1,i
O=C(NCCOC(=O)c1ccccc1C(=O)OCCNC(=O)c1cccnc1)c1cccnc1,1.2
COc1cccc2cc(-c3nnc(SCC(=O)NCCc4ccccc4)n3C)oc12,0.7
CCOC(=O)c1c(NC(=O)CN2CCOCC2)sc2c1CC(C)(C)OC2,1.0
CCOC(=O)c1cccc(NC(=O)CCS(=O)(=O)c2cccs2)c1,0.4
NC1C2CN(c3nc4c(cc3F)c(=O)c(C(=O)O)cn4-c3ccc(F)cc3F)CC12 (stereo not drawn),27*
COCc1[nH][nH]c(=O)c1C=Nc1ccc(Oc2ccccc2)cc1,i
O=C1CCC(C(=O)OCC(=O)C23CC4CC(CC(C4)C2)C3)N1 (stereo not drawn),0.8
COC(=O)C(Cc1c[nH]c2ccccc12)NC(=O)C(C)C (stereo not drawn),0.1
COc1ccc(CCNC(=O)CCn2c(=O)[nH]c3cc(OC)c(OC)cc3c2=O)cc1OC,1.0
CCOc1ccc(CN2CCC(C(=O)N3CCN(c4ccccc4F)CC3)CC2)cc1OC,i
CC1CCC(C(C)C)C(OC(=O)C[n+]2cccc(C(N)=O)c2)C1 (stereo not drawn),i
O=C(Nc1cccc(Cl)c1)N1CCN2C(=O)c3ccccc3C12c1ccccc1 (stereo not drawn),i
Cc1ccc(NC(=O)CCSc2nc(C)cc(C)n2)cc1,i
Cc1nnc2sc(-c3ccccn3)nn12,2.0
CCOc1cccc(C(=O)NC(=S)Nc2ccc(N3CCCC3)cc2)c1,i
CNc1ccc(/C=C2\COc3ccccc3C2=O)cc1[N+](=O)[O-],0.9
CC(NC(=O)COC(=O)CCNC(=O)c1ccco1)C12CC3CC(CC(C3)C1)C2 (stereo not drawn),0.7
CC(C)(C)C1CCC(OCC(O)CN2CCN(c3ccccc3)CC2)CC1 (stereo not drawn),1.0
O=C(Cn1ncc2c3ccccc3n(Cc3ccc(F)cc3)c2c1=O)N1CCC2(CC1)OCCO2,0.1
O=C(O)CCn1ccnc1-c1ccccc1,0.3
CCn1c(-c2ccc(C(C)(C)C)cc2)n[nH]c1=S,i
COc1cc2c(cc1NC(=O)Nc1cccc(C)c1)oc1ccccc12,i
NC(=O)c1ccc(-n2nnnc2SCc2ccc(F)cc2)cc1,1.7
CCn1c(=O)cc(OCC(=O)N2CCCCCC2)c2ccccc21,0.8
Cc1ccc(/C=C2\SC(=S)N(CCCC(=O)Nc3ccccn3)C2=O)cc1,1.1
CCOC(=O)Cc1csc(NC(=O)C(C)(C)C)n1,0.5
Cc1cc(C)nc(SCc2nnc(SCC(=O)NCc3ccco3)n2-c2ccccc2)n1,0.6
Cc1nc(N2CCC(C)CC2)c2c(C)c(C(=O)O)sc2n1,2.2
